Bioassay records (PubChem)
HPGD inh = qHTS Assay for Inhibitors of HPGD (15-Hydroxyprostaglandin Dehydrogenase). 150,000 compounds, 4.3% hits. purified HPGD, NADH fluorescence kinetic, PGE2 substrate. Potency, µM, for inactives: at the highest dose activity change, negative = inhibition, hits mostly inhibitors; active = well fitted inhibition curve with a large enough effect (not every such curve was filed as active); inconclusive = small, poorly fitted or top-dose-only effect, or another doubt; inactive = no such curve, though single readings can be large or run the other way;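 note: top concentration of the series not given in the record; plate controls included wells without enzyme; inactives centre near -10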
Target sequence (P15428 whole entry, looked up): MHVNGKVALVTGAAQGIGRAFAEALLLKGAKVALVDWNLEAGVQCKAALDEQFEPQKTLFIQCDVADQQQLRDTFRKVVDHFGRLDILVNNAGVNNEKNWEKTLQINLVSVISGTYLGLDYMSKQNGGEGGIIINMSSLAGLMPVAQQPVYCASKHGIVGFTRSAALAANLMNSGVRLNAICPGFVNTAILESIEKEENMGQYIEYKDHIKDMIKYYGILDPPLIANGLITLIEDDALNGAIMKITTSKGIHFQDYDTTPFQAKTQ
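NADH formation kinetics: reaction with 30 uM PGE2 and 1 mM NAD+ (final), 20 nM enzyme, Tris-HCl pH 8 with Tween 20, after 15 min compound preincubation at room temperature. Fluorescence change, last versus first of five reads.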
* hit, by the source's call; u = inconclusive. % is set by controls: 0 for no effect and ±100 for the full control effect; potency is the fitted concentration of half-maximal effect. An excerpt. The share of hits here may be higher or lower than overall.

SMILES	HPGD inh
O=C(CN(c1ccccc1)S(=O)(=O)c1ccccc1)Nc1ccccc1C(=O)NCc1ccco1	u
c1ccc2[nH]c3cc4ncnc4cc3nc2c1	-12%
Cc1ccc(-c2nnn(CC(=O)N(Cc3ccccc3F)C(C(=O)NC3CCCC3)c3ccncc3)n2)o1 (stereo unspecified)	-8%
CC(C)OP(=O)(c1ccc(N(C)C)cc1)C(O)c1c(Cl)cccc1Cl (stereo unspecified)	9%
COc1cccc(C2=CC(c3ccccc3)n3nnnc3N2)c1 (stereo unspecified)	u
O=C(NCCc1ccccn1)C(F)(F)C(F)(F)C(F)(F)C(F)(F)C(F)(F)C(F)F	-18%
Cc1ccc(NC(=O)NC(=O)CSc2nnnn2C)c(C)c1	-2%
O=S(=O)(c1cccs1)n1cnc2ccccc21	-10%
c1ccc2c(c1)Cn1nc(Cc3nc4c(s3)CCCC4)nc1-2	-11%
Cc1ccc(S(=O)(=O)N(C(=O)c2ccncc2)c2ccc(OC(=O)c3ccncc3)cc2)c(C)c1	28µM*
O=C(CC(c1ccccc1)c1ccccc1)Nc1ccc(Cl)cn1	-20%
COc1cc2c(cc1OC)CN(C(=O)Cc1ccc(OC)c(S(=O)(=O)N3CCOCC3)c1)CC2	-8%
Oc1ccc2c(c1)OCO2	-4%
COc1ccccc1OC(C)c1nnc(SCC(=O)Nc2c(C)n(C)n(-c3ccccc3)c2=O)n1-c1ccccc1 (stereo unspecified)	0%
CS(=O)(=O)N(CC(=O)N1CCOCC1)Cc1ccc(Cl)cc1	-5%
Cn1c(=O)c2c(nc(SCCCC#N)n2Cc2ccccc2F)n(C)c1=O	-7%
CCOC(=O)N1CCN(C(=O)c2oc3ccc(S(=O)(=O)N4CC(C)CC(C)C4)cc3c2C)CC1 (stereo unspecified)	-17%
COC(=O)C(C)C1Sc2ccccc2NC1=O (stereo unspecified)	-18%
CCn1c(=O)cc(SCC(=O)Nc2ccc3c(c2)OCO3)c2ccccc21	-15%
Cc1cccc(CCNC(=O)CCc2nc(-c3ccccc3F)no2)c1	-10%
CSc1nnc(Cn2c(=O)sc3ccccc32)n1CCc1ccccc1	0%
O=C(CSc1nnc(-c2cccnc2)o1)Nc1ccccn1	-5%
O=C(Nc1nnc(SCc2cccc3ccccc23)s1)C1COc2ccccc2O1 (stereo unspecified)	u
Cc1oc(/C=N/NS(=O)(=O)c2ccccc2)cc1Br	-4%
Cc1nnc(NC(=O)c2cccc(NC(=O)C(C)C)c2)s1	-16%
CCOC(=O)C1CCN(c2c(NCCCN(C)C3CCCCC3)c(=O)c2=O)CC1	0%
CCOc1ccc(C(O)c2nccn2C)cc1 (stereo unspecified)	-7%
O=C(NCc1ccc(F)cc1)C(=O)NCC1OCCN1C(=O)c1ccc(Cl)cc1 (stereo unspecified)	-1%
Cc1noc(NS(=O)(=O)c2ccc(NC(=O)Nc3ccc(Cl)c(Cl)c3)cc2)c1C	-21%
COc1cccc(-c2noc(N)c2C#N)c1	u

A draw from above in order of SMILES length, high to low.
SMILES	HPGD inh
CSc1nnc(Cn2c(=O)sc3ccccc32)n1CCc1ccccc1	0%
Cc1nnc(NC(=O)c2cccc(NC(=O)C(C)C)c2)s1	-16%
Cc1oc(/C=N/NS(=O)(=O)c2ccccc2)cc1Br	-4%
O=C(CSc1nnc(-c2cccnc2)o1)Nc1ccccn1	-5%
COc1cccc(-c2noc(N)c2C#N)c1	u
CCOc1ccc(C(O)c2nccn2C)cc1 (stereo unspecified)	-7%

The list goes on.
SMILES	HPGD inh
Cc1ccc(NC(=S)N2CCN(C3CCCCC3)CC2)cc1	-2%
O=C(COC(=O)CNC(=O)C12CC3CC(CC(C3)C1)C2)NC1CCS(=O)(=O)C1 (stereo unspecified)	-4%
COc1ccc(CC(=O)NC(C)c2nnc(SCC(=O)c3ccc(Br)cc3)n2C)cc1 (stereo unspecified)	-3%
Cc1csc(NC(=O)c2cnccn2)n1	-9%
NC(=O)C1CCN(CCC(=O)Nc2ccc3c(c2)CCC3)CC1	0%
CCCC(=O)NC(c1ccccc1Cl)c1c(O)ccc2ccccc12 (stereo unspecified)	-14%
CCN(CC)CCOC(=O)c1ccc(NC(=O)CNC(=O)C2CCCCC2)cc1	-12%
CCC(=O)CCC(=O)c1ccc2ccccc2c1	-26%
Cc1ccccc1CN(CC(=O)Nc1cccc([N+](=O)[O-])c1)S(=O)(=O)c1ccc(Cl)cc1	-7%
COc1cccc(C2/C(=C(/O)c3cnn(-c4ccccc4)c3C)C(=O)C(=O)N2CCN(C)C)c1OC (stereo unspecified)	-7%

Two entries from above, as labelled records:
SMILES: CCC(=O)CCC(=O)c1ccc2ccccc2c1
  HPGD inh: -26%
SMILES: NC(=O)C1CCN(CCC(=O)Nc2ccc3c(c2)CCC3)CC1
  HPGD inh: 0%

Additional records.
SMILES	HPGD inh
COc1ccc(-c2nc(-c3ccncc3)no2)cc1OC	-18%
COc1ccccc1CNC(=O)Cn1cnc2ccccc2c1=O	-11%
O=C(O)c1cccc(N=Nc2c(S(=O)(=O)O)ccc3c2C(=O)c2ccccc2C3=O)c1O	-22%
CC(=O)[C@]1(O)CCC2C3CC(C)C4=CC(=O)C=CC4(C)[C@@]3(F)C(O)C[C@]21C (stereo partly specified)	-2%
CCOc1ccc(CN2CCNC(=O)C2CC(=O)OC)cc1 (stereo unspecified)	-11%
Cc1ccc(NC2=CC(=O)CC(c3ccccc3)C2)cc1 (stereo unspecified)	-11%
CC(c1ccccc1)n1cc(C(=O)NCC2COc3ccccc3O2)nn1 (stereo unspecified)	-8%
N=c1sc2ccccc2n1CCS (tested in a mixture with another compound)	-11%
Cc1cccc(N2CCN(C(=O)c3ccc(N4CCCC4=O)cc3)CC2C)c1 (stereo unspecified)	-4%
CC(=O)OC1CC2C(C)(C)C(O)CC[C@@]2(C)C2CC[C@@]3(C)C(c4ccoc4)OC(=O)C4OC43[C@]12C (stereo partly specified)	-5%
O=C(CSc1nc(O)c(Cc2ccccc2)c(=O)[nH]1)Nc1ccccc1	-7%
CCCN1C(=O)CN(C2CCCCCC2)C(=O)C1c1ccc(C)cc1 (stereo unspecified)	-1%
COC(=O)c1ccccc1NC(=S)NC(=O)c1ccccc1C	-15%
CCN(c1ccccc1)S(=O)(=O)c1ccc(NC(=S)NC(=O)c2ccc(Br)o2)cc1	-5%
CC1(C)CNC(=O)c2sc(N3CCOCC3)nc2C1	-16%
COC(=O)C1=C(C(=O)OC)SC(=C2C(=S)C(C)(C)N(C(=O)C(C)C)c3ccccc32)S1	-10%
Cc1nn(C)c(C)c1NC(=O)CCCSc1nc(-c2ccco2)cc(C(F)(F)F)n1	-12%
Cc1ccc(NC(=O)C(Cc2ccccc2)N2C(=O)C3C4CCC(C4)C3C2=O)cc1Cl (stereo unspecified)	-16%
CC(=O)Nc1ccc(S(=O)(=O)N2CCN(c3cc4c(cc3[N+](=O)[O-])n(C)c(=O)n4C)CC2)cc1	-1%
O/N=C1\CC/C(=N\O)c2nn(-c3ccc(Cl)cc3Cl)nc21	-13%
CCOC(=O)CN1NC2(CCC(C(C)(C)C)CC2)NC1=S (stereo unspecified)	-20%
CCN1CCN(c2ncnc3sc(C(=O)Nc4ccccc4F)c(C)c23)CC1	-17%
O=C1CCCC2CCCCN12 (stereo unspecified)	0%
O=C(c1ccccc1)N(Cc1ccc(F)cc1)Cc1nc2ccccc2c(=O)[nH]1	-4%
COC(=O)c1ccccc1NC(=O)COC(C)=O	0%
CCn1c(SCC(=O)c2c[nH]c3ccccc23)nc2cc(S(=O)(=O)N3CCOCC3)ccc21	-20%
Cc1ccc(S(=O)(=O)N2CCSC2c2ccco2)cc1 (stereo unspecified)	-9%
COC(=O)c1ccc(C(=O)OC)c(NC(=O)N2c3ccccc3Sc3ccccc32)c1	-28%
COc1ccccc1C1C=C(c2ccc(C)cc2)Nc2nnnn21 (stereo unspecified)	-15%
c1ccc(-n2ncc3c(NCCN4CCOCC4)ncnc32)cc1	u

5 records picked at random from those above:
SMILES	HPGD inh
Cc1ccc(S(=O)(=O)N2CCSC2c2ccco2)cc1 (stereo unspecified)	-9%
COC(=O)c1ccc(C(=O)OC)c(NC(=O)N2c3ccccc3Sc3ccccc32)c1	-28%
COC(=O)c1ccccc1NC(=O)COC(C)=O	0%
CCOC(=O)CN1NC2(CCC(C(C)(C)C)CC2)NC1=S (stereo unspecified)	-20%
O=C(c1ccccc1)N(Cc1ccc(F)cc1)Cc1nc2ccccc2c(=O)[nH]1	-4%

Further results:
SMILES	HPGD inh
COC(=O)CCC(=O)OC1(C)C(=O)C2=COC(c3ccc(OC)cc3)=CC2=C(Br)C1=O (stereo unspecified)	-5%
Cc1ccc(C2=N/C(=C\c3cccnc3)C(=O)O2)cc1	-7%
N/C(=N/O)c1nc(N2CCCCC2)nc(N2CCCCC2)n1	-16%
O=C(N1CCOCC1)N1CCN(Cc2ccccc2)CC1	-1%
COC(=O)N/N=C/c1cc(Cl)c(OCc2ccc(F)cc2)c(OC)c1	-13%
Cc1nc2ccc(S(=O)(=O)Nc3ccc(-c4nc5cccnc5s4)cc3)cc2s1	u
CC(C)=CCn1cnc2c1C(NOCc1ccccc1)=NCN2	-10%
O=[N+]([O-])c1cc2oc3c(c2c(C=NCc2ccncc2)c1O)CCCC3	-22%
CC(=O)Nc1ccc(NC(=O)C(Cc2ccccc2)NC(=O)C2CCC(C)CC2)cc1 (stereo unspecified)	-8%
Cc1nc(N2CCN(Cc3nc4ccccc4[nH]3)CC2)c2oc3ccccc3c2n1	-13%
COc1ccccc1CCn1c(=O)c(-c2ccc(F)cc2)nc2cncnc21	-1%
CC1=C[C@H]2Cc3cc(C)cc(C)c3S(=O)(=O)[C@@H]2C=C1	-8%
CCCNC(=O)c1ccccc1NC(=O)Nc1ccccc1C	-7%
CCC(CC)c1nnc(NC(=O)CCCN2C(=O)c3ccccc3C2=O)s1	-7%
O=Cc1cnc(N2CCOCC2)nc1	-19%
O=C(CSc1nnc2ccccn12)Nc1cccc(-c2nc3ccccc3s2)c1	-26%
CCn1cc([N+](=O)[O-])c(C(=O)N2N=C(c3cccc4ccccc34)CC2c2ccccc2O)n1 (stereo unspecified)	-16%
CCCc1ccc(OCc2ccc(C(=O)OC)o2)c(OC)c1	-26%
CCn1c(CN2CCN(c3ccc(Cl)cc3)CC2)nc2ccccc21	-20%
COc1ccc2[nH]c(=O)c(CN(C(=O)c3ccco3)C3CCCCC3)cc2c1	u
CC1=C(C(=O)Nc2ccc(C)cc2)C(c2cccs2)NC(=S)N1 (stereo unspecified)	-2%
FC(F)(F)c1cc(-c2cccs2)nc2cc(-c3ccccc3)nn12	u
Cc1ccc(C(=O)N/C(=C\c2cccs2)C(=O)NCc2cccnc2)cc1	-14%
CCOC(=O)C1=C(C)NC(=S)NC1c1cccc(O)c1 (stereo unspecified)	u
COCCCNC(=O)Nc1ccc2c(c1)N(C)C(=O)CS2	-11%
O=C(c1ccc(Cl)cc1)c1cc(-c2ccccn2)c(N2CCOCC2)s1	-28%
O=C(Cn1cnc2ccccc2c1=O)Nc1ccc2c(c1)OCO2	0%
CCOC(=O)C(C)n1nc(C)c2sc3ccccc3c2c1=O (stereo unspecified)	-10%
COc1ccccc1Nc1ncnc2c1oc1ccccc12	u
CC1CC(C)CN(C(=O)CSc2nnc(-c3ccc(Cl)cc3)o2)C1 (stereo unspecified)	-16%

Three of the entries above in order of their number in HPGD inh, high to low.
SMILES	HPGD inh
Cc1ccc(S(=O)(=O)N2CCSC2c2ccco2)cc1 (stereo unspecified)	-9%
CC1CC(C)CN(C(=O)CSc2nnc(-c3ccc(Cl)cc3)o2)C1 (stereo unspecified)	-16%
Cc1noc(NS(=O)(=O)c2ccc(NC(=O)Nc3ccc(Cl)c(Cl)c3)cc2)c1C	-21%

Next compounds:
SMILES	HPGD inh
CCN(C(=O)c1ccnc(C(C)(C)C)c1)c1ccccc1	-5%
CSc1nc(C)cc(C)c1C#N	-1%
Cc1ccc(/C=C/C(=O)Nc2cccc(S(=O)(=O)N3CCOCC3)c2)o1	u
O=C(Nc1cccc(-c2nc3cccnc3s2)c1)c1ccco1	-26%
CCOC(=O)CN1C(=O)N[C@@H](CCc2ccccc2)[C@H](C(=O)OC)[C@H]1C	-2%
CCC(C)NC(=O)Cn1nc([N+](=O)[O-])c(Cl)c1C (stereo unspecified)	-7%
CCCCc1ccc(/C=C2\C(=O)c3ccccc3C(O)=C2C(=O)OCC)cc1	8.9µM*
CC(C)NCc1c(O)c(Br)cc2oc3c(c12)CCCC3	-9%
Cc1cccc(NC(=O)CSc2nnc(NC(=O)CN3CCOCC3)s2)c1	-8%
Cc1cc(NCCCn2ccnc2)n2ncc(-c3ccc(Cl)cc3)c2n1	u
COC(=O)Nc1nnc(-c2ccncc2)s1	u
COC(=O)c1[nH]c2ccc(Cl)cc2c1NC(=O)CN1CCc2cc(OC)c(OC)cc2C1	-23%
CCOc1ccccc1C(=O)NN1C(=O)CCC1=O	-4%
CCn1nnnc1SCC(=O)Nc1nnc(C(C)C)s1	3%
Cn1c(CCNC(=O)c2cccs2)nnc1SCC(=O)Nc1nc(-c2ccccc2)cs1	-15%
COc1cccc(OCC(=O)NNC(=O)c2cccs2)c1	-3%
O=C(O/N=C1/CCCc2occc21)c1ccccc1	-4%
COc1ccc(NCc2nc3ccccc3n2CCOc2ccccc2)cc1	-24%
COc1ccc(-c2nc3cccc(C)n3c2NCc2ccco2)cc1OC	u
N#CC1=C(N)C(C#N)(C#N)[C@H](c2ccsc2)[C@H]2COCC=C12	u
CCOC(=O)CSc1nnc(CNC(=O)c2ccc(S(=O)(=O)N3CCCC3)cc2)n1C	-2%
COc1cc(C(=O)Nc2ccc3c(c2)OCCO3)c(-n2cnnn2)cc1OC	2%
Cc1nn(Cc2ccccc2)c2c1C(c1cccnc1)C(C#N)=C(N)O2 (stereo unspecified)	-21%
CCOC(=O)C(=NC(C)C)NNc1cc(Cl)ccc1Cl	-9%
